Six1-Eya2 inh – Six1/Eya2 interaction inhibition. Q15475+O00167. activity change, % (no concentration beside the values). 360,000 tested, 0.56% active. AlphaScreen GST-Six1/His-Eya2 binding, biochemical; active compounds read low; control for the full effect not named in the record; in the data active = activity change below about -65%; inconclusive = about -30% to -65%; inactive = above about -30%; also: % is scaled to controls: 0 for no effect and ±100 for the full control effect
Target sequence (O00167 whole entry, looked up): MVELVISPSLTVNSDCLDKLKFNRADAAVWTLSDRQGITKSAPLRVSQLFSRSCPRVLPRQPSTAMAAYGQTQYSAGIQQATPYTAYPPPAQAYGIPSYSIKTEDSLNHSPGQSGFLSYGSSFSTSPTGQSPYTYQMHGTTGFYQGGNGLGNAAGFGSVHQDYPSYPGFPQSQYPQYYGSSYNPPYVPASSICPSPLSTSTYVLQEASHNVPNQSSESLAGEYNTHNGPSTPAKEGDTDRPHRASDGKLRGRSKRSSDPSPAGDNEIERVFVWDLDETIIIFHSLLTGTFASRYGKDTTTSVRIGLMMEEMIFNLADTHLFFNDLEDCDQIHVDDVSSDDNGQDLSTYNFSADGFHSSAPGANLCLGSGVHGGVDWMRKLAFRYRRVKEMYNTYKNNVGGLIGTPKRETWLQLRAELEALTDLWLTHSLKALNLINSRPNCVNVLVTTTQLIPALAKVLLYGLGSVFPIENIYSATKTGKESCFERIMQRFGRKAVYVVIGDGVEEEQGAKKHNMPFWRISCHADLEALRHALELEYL
Target sequence (Q15475 whole entry, looked up): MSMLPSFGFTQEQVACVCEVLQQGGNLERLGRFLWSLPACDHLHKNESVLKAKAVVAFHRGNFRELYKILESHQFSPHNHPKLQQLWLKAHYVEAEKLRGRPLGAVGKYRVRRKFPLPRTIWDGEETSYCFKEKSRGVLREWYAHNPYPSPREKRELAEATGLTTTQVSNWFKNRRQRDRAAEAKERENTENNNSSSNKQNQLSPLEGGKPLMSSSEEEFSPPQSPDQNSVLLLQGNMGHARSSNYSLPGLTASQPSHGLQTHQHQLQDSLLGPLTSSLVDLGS
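Homogeneous AlphaScreen proximity assay pairing GST-Six1 with His-tagged Eya2 (added as 5X mix: 250 nM and 500 nM) in 50 mM Tris pH 8.0, 300 mM NaCl, 1 mM TCEP. Glutathione donor and nickel acceptor beads; 1 h, 37 °C, dark.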
D2 agonist – agonists of human D2 dopamine receptor (beta-arrestin); DiscoveRx PathHunter D2 beta-arrestin, luminescence, 90 min; 100% = 57 uM dopamine signal; activation, % (test concentration not listed); P14416; AID 624465; 360,000 tested, 0.084% active; in the data active = activation above about 40%; inconclusive = about 15% to 40%; inactive = below about 15%; also: compound concentration not given in the record; the text of the record calls up to 30% inactive
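Agonist mode: compounds alone added to overnight-plated D2 PathHunter cells for 90 min at 37 C, with 57 uM final dopamine (EC100) defining full response. Beta-arrestin recruitment detected by chemiluminescent reagent, read after 1 h at ambient temperature.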
gsp antag – antagonists of gsp mutant (McCune-Albright syndrome); gsp-mutant cells, cAMP HTRF, 30 min; control for the full effect not named in the record; Potency, µM (highest dose often 76.9 µM), inactives show at the top dose activity change, negative = inhibition, hits mostly inhibitors; 340,000 tested, 0.4% active; AID 624288; active = falling curve of any shape with a large fitted effect; inconclusive = falling curve, mostly with a smaller effect; inactive = flat or rising curve; cell line not stated here;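 also: intracellular cAMP measured with PDE inhibitor Ro 20-1724 present during compound exposure; potency is read from the fitted curve at half-maximal effect; % is scaled to controls: 0 for no effect and ±100 for the full control effect; nearly all actives have a fitted effect of over 65% in size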
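Cells in G418 medium, seeded 16-24 h, 37C; buffer exchange to DPBS + 1 mM CaCl2, 0.5 mM MgCl2, 0.05% BSA; cpds in DMSO + […] (300 uM stock), 30 min 37C; HTRF cAMP detection.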
D2 PAM – positive allosteric modulators of human D2 dopamine receptor. P14416. DiscoveRx D2 beta-arrestin cells, luminescence, 90 min; 100% = 57 uM dopamine signal. potentiation, % (concentration not given with the values). 360,000 tested, 0.23% active. AID 624464; active = potentiation of 50% or more; inconclusive = 30% to 50%; inactive = 30% or less;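 also: compound concentration not given in the record; tested on top of an EC20 dose of dopamine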
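PathHunter beta-arrestin assay in DiscoveRx D2 cells. Compounds were added with an EC20 of dopamine (50 nM final) for 90 min at 37 deg C. Luminescence was read 1 h after detection reagent, with 57 uM dopamine as the EC100 control.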
gsp ag – agonists of gsp mutant (McCune-Albright syndrome). gsp mutant cells, cAMP HTRF, 30 min; control for the full effect not named in the record. Potency, µM (top dose mostly 76.9 µM), without a hit: top-dose activation (cAMP increase), usual class: activators. 340,000 tested, 0.13% active. AID 624287; active = well fitted activation curve with a large enough effect; inconclusive = small, poorly fitted or top-dose-only effect, or another doubt; inactive = no such curve, though single readings can be large or run the other way; cell line not stated here;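 also: phosphodiesterase inhibitor Ro 20-1724 added with compounds to block cAMP breakdown; potency is read from the fitted curve at half-maximal effect; nearly all actives have a fitted effect of over 60% in size; about a fifth of the inactives were tested at one dose only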
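Cells stably selected in G418 were plated at 2000/well, grown 16-24 hr, then given compounds in DMSO with the PDE inhibitor […] (300 uM solution added) for 30 min at 37C; cAMP was read by HTRF.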
CtBP-E1A inh – blocks the CtBP interaction with E1A; activity change, % (concentration not given with the values); AID 651724; AlphaScreen GST-E1A/His-CtBP binding, 1536-well; active compounds read low; control for the full effect not named in the record; 340,000 tested, 0.49% active; in the data active means activity change below about -65%; inconclusive means about -30% to -65%; inactive means above about -30%; also: % is scaled to controls: 0 for no effect and ±100 for the full control effect
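GST-E1A and His-tagged CtBP (125 nM each as 5X stock) were preincubated with pin-transferred compound for 2 h at 37 °C in the dark, then glutathione donor and nickel acceptor beads were added for 1 h before AlphaScreen reading.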
An asterisk follows results filed as active; ? = inconclusive; / = no result given; [ ] = remark or other dose.

SMILES	Six1-Eya2 inh	D2 agonist	gsp antag	D2 PAM	gsp ag	CtBP-E1A inh
Cc1cccc([C@@H]2[C@@H]3C(=O)N(Cc4ccccc4)C(=O)[C@@H]3[C@]3(CC(C)C)C(=O)N(c4cccc(F)c4)C(=O)N23)c1	-6	-1.7	-4%	-9	-50%[inhibitor]	-5
Nc1ccc2c(c1)COC2=O	1	-3.0	-9%	-10	3%[15.4 µM]	8
O=C(O)CC1(CC(=O)Nc2ccc(F)c(Cl)c2)CCCCC1	16	-3.4	?	-6	-6%[15.4 µM]	23
O=C(OCC(=O)N1CCCCCC1)c1cccs1	-6	-4.6	0%	-12	1%	-3
CCN(CC)S(=O)(=O)c1cc(C(=O)OCC(=O)Nc2ccc(-c3nc4ccc(C)cc4s3)cc2)ccc1F	10	-1.1	?	-6	19%	10
N#Cc1ccc(COC(=O)CSc2nnc(C3CCCCC3)n2N)cc1	-4	-3.7	-6%	-3	2%	4
C=CCn1c(=O)c2c(nc3n2CCCN3CCc2ccc(OC)c(OC)c2)n(C)c1=O	-7	-0.1	-9%	1	7%	-10
CCC1(c2ccccc2)NC(=O)N(CC(=O)Nc2ccc(S(N)(=O)=O)cc2)C1=O (centres undefined)	3	-2.0	12%	3	-7%[15.4 µM]	-10
CCOc1ccc(C2C(C(=O)c3cccs3)=C(O)C(=O)N2CCCn2ccnc2)cc1 (centres undefined)	0	-2.0	1%	3	-4%	4
Cc1cccc(N(C)S(=O)(=O)c2nnc(NC(=O)c3ccco3)s2)c1	1	0.8	1%	-13	1%	/
Cc1ccccc1C(C(=O)NCc1ccco1)N(CC1CCCO1)C(=O)Cn1nnc2ccccc21 (centres undefined)	7	-2.5	-3%	14	-1%	-7
c1ccc(Cn2nnc(CNc3ccccc3)c2-c2c(CNc3ccccc3)nnn2Cc2ccccc2)cc1	-18	-1.9	-7%	-13	/	-11
Cc1nc2sccn2c(=O)c1S(=O)(=O)Nc1ccc(N2CCOCC2)c(Cl)c1	-2	-0.8	-18%	-2	-27%	-1
Cc1cccc(N(C(=O)c2snc(C(N)=O)c2N)C(C(=O)NCC2CCCO2)c2ccc(N(C)C)cc2)c1 (centres undefined)	-13	-2.8	-4%	-7	2%[15.4 µM]	3
CCCCc1cc(=O)oc2cc(O)ccc12	6	-2.3	-5%	10	33%[15.4 µM]	1
C/C(=N\OCC(=O)Nc1ccc(Br)cc1)c1cccs1	8	-2.3	-3%	-12	?	19
Cc1ccc(S(=O)(=O)N[C@@H](C)C(=O)OCC(=O)N2c3ccccc3NC(=O)C2(C)C)cc1	2	0.2	-3%	-4	2%	/
COc1cccc(CC(=O)OCC(=O)NC2(C#N)CCCC2)c1	9	-4.0	-12%	-8	15%	-6
CCOC(=O)c1c(C)c(C(=O)NC2CCCCCC2)c(C)n1C	1	0.3	12%	-4	?	2
O=C(Nc1ccccn1)C(c1ccccc1)c1ccccc1	-7	0.0	/	-10	24%	-4
CCOC(=O)c1c(CC(C)C)csc1NC(=O)COC(=O)c1ccc(O)cc1	5	-4.2	?	12	0%	-7
O=C1Nc2ccc(Br)cc2C1=C1CCCCC1	-6	-13	7%	-41	2%[15.4 µM]	-16
CCOc1cccc(CNn2cnnc2)c1OCc1ccccc1	4	-0.9	-19%	-1	?	-6
COc1ccccc1CCC(=O)Nc1ccc(OC)c(S(=O)(=O)N2CCOCC2)c1	-4	0.9	9%	2	-6%	-5
CCOc1ccc(CCNC(=O)C2CCN(c3ccc(N4CCOCC4)nn3)CC2)cc1OCC	-5	-0.7	-9%	8	-4%	-15

Compounds from the list above that have bromine (2):
SMILES	Six1-Eya2 inh	D2 agonist	gsp antag	D2 PAM	gsp ag	CtBP-E1A inh
C/C(=N\OCC(=O)Nc1ccc(Br)cc1)c1cccs1	8	-2.3	-3%	-12	?	19
O=C1Nc2ccc(Br)cc2C1=C1CCCCC1	-6	-13	7%	-41	2%[15.4 µM]	-16

(continued)
SMILES	Six1-Eya2 inh	D2 agonist	gsp antag	D2 PAM	gsp ag	CtBP-E1A inh
Cc1cc(OCc2cc(C(=O)NC(C)c3cnn(C)c3)no2)cc(C)c1Cl (centres undefined)	-6	1.5	/	-11	-55%[inhibitor]	3
CCOCCCNC(=O)c1cn(C)c2ccc(S(=O)(=O)N3CCCC3)cc2c1=O	-5	-3.8	-7%	-5	-47%[inhibitor]	-2
COC(=O)c1ccc(NC(=O)NC2CCCCC2)cc1	2	-2.2	4%	-23	-30%	3
COc1ccc(-n2c(C)cc(C(=O)COc3ccc(-n4cnnn4)cc3)c2C)cc1	7	0.6	7%	-3	-8%	10
O=C(COC(=O)CCNS(=O)(=O)c1ccc2c(c1)OCCO2)NC1CCCc2ccccc21 (centres undefined)	-2	0.4	-23%	2	-10%	-1
O=C(CSc1nc(C(F)(F)F)cc(=O)[nH]1)Nc1cccc2ccccc12	8	1.2	-5%	3	-2%	-17
CCN(CC(=O)Nc1ccc(NC(C)=O)cc1)C(=O)C1CC(=O)N(Cc2ccc(C)cc2)C1 (centres undefined)	4	-4.6	7%	9	?	-13
CCOC(=O)CC(NC(=O)c1cccs1)c1ccc(C)cc1 (centres undefined)	-14	-5.2	-6%	-3	19%[15.4 µM]	-6
COc1ccc(Nc2nc(N3CCCC3)c3ccccc3n2)cc1	-28	1.5	-10%	-32	8%	?
CCn1cc(/C=C(\NC(=O)c2ccc(OC)cc2)C(=O)N2CCN(C)CC2)c2ccccc21	-3	-0.7	11%	-24	20%	3
CCCCNC(=O)c1nc(C2CCN(S(=O)(=O)c3ccc(F)c(F)c3)CC2)oc1-c1cccc(C(F)(F)F)c1	3	-1.9	/	-5	/	9
OCCCNc1ncnc2c1cnn2-c1ccc(Cl)cc1	-1	1.5	-1%	-6	24%	/
Cc1ccc(C(=O)/C=C/N(C)C)cn1	8	-2.9	18%	-3	-5%[15.4 µM]	18
O=C(Cc1cccs1)NC(c1ccccc1)c1ccccc1	-4	2.9	/	3	2%[15.4 µM]	-4
CCc1cccc(NC(=O)Cn2c(=O)n(CCC(=O)NCC3CCCO3)c(=O)c3cc(OC)c(OC)cc32)c1 (centres undefined)	-2	-0.5	-46%	-5	6%[15.4 µM]	-1
CCc1ccc(OCC(=O)Nc2ncn[nH]2)cc1	-8	1.8	9%	-3	/	-8
CCCN1CCC(C)(C(=O)Nc2cccc(OC(C)C)c2)C1 (centres undefined)	-5	5.0	/	-4	/	-4
CC1CCN(C(=O)c2ccc(NC(=O)c3ccccc3)cc2)CC1	-1	2.6	2%	2	13%	8
Nc1ccc(C(=O)OCC(=O)NC(=O)c2ccccc2)cc1[N+](=O)[O-]	-2	-4.0	3%	-3	?	2
Cc1cc2c(=O)n(C)c(SCC(=O)Nc3ccccc3C)nc2s1	3	-1.7	-14%	-1	-9%[15.4 µM]	-8
Cn1c(NCc2cccnc2)nc2cc(-c3cccc(C(=O)NCCO)c3)sc2c1=O	-12	-3.9	/	-4	/	-5
Cc1nc(S(=O)(=O)Cc2ccc(Cl)cc2)nc2c1CCC2	8	-0.1	-6%	-4	3%[15.4 µM]	25
CCOc1ccc(CNc2ccc(N3CCOCC3)c(C(=O)O)c2)cc1	-3	0.2	-6%	-2	-15%	-1
O=C(CSc1n[nH]c(=O)[nH]c1=O)N/N=C/c1ccccc1	-5	-0.6	12%	-10	-7%	-12
CC1(C(=O)NS(=O)(=O)c2cccc(Cl)c2)CCN1C(=O)c1cccc(F)c1 (centres undefined)	4	-3.8	/	-10	/	3
SMILES	Six1-Eya2 inh	D2 agonist	gsp antag	D2 PAM	gsp ag	CtBP-E1A inh
O=S1(=O)C=C(N2CCCCC2)c2ccccc21	-1	-2.7	-2%	4	-11%	1
O=C(Cc1ccccc1[N+](=O)[O-])NCc1ccc(Cl)cc1Cl	4	-0.7	7%	7	?	2
CN1CC(c2ccc(C#N)cc2)C2(COc3ccccc3C2=O)C12C(=O)Nc1ccccc12 (centres undefined)	-16	-2.0	0%	-5	-2%	-10
Cc1n[nH]c(C)c1NC(=O)c1cc([N+](=O)[O-])ccc1Cl	0	0.2	0%	-4	-31%	/
CCOc1ccc2[nH]c(C(=O)N/N=C/c3cc(OC)c(OC)c(OC)c3)cc2c1	-3	8.5	-1%	5	-6%[15.4 µM]	1
CC(C)(C)NC(=O)NC(=O)CN1CCN(S(=O)(=O)/C=C/c2ccccc2)CC1	-10	-1.8	20%	-5	-8%[15.4 µM]	-14
Cc1ccc(-c2nnc(SCC(=O)NCC3CCCO3)nc2-c2ccc(C)cc2)cc1 (centres undefined)	-9	-5.1	-18%	2	-8%	0
O=C(CCc1ccc(S(=O)(=O)N2CCOCC2)cc1)NN=C1CCCCCCC1	5	-1.9	5%	-8	-1%	-8
CN(C)c1ccc(/C=N/NC(=O)c2nnn(-c3nonc3N)c2COc2ccc(F)cc2)cc1	4	0.2	0%	-10	18%[15.4 µM]	-1
CCN(Cc1cc(=O)oc2cc(C)ccc12)c1ccccc1	7	-7.2	-22%	-6	4%	0
O=C(NC1CCCCC1)C1CCCN(S(=O)(=O)c2cccs2)C1 (centres undefined)	7	0.9	5%	1	-4%	4
C[C@H](CO)N1C[C@H](C)[C@@H](CN(C)Cc2ccncc2)Oc2ncc(Br)cc2C1=O	-20	-5.5	/	-7	9%	-15
N/C(=N\OC(=O)CCC1CCCC1)c1ccccc1	19	-1.4	-4%	-5	19%[15.4 µM]	20
CC(NC(=O)CN1CCN(c2ccc(Cl)cc2)CC1)c1ccccc1 (centres undefined)	1	-4.6	-4%	-3	-34%	-7
Cc1ccc(Cl)cc1N1CCN(CC(=O)Nc2ccc(CN3CCCCC3)cc2)CC1	-12	-7.3	-3%	-13	-25%	-7
CN1CCN(C2=NC(=O)/C(=C/c3cn[nH]c3-c3ccccc3)S2)CC1	-4	-3.2	-15%	-26	29%	/
CCn1c(SCC(=O)OC(C)C)nnc1-c1cccc(Cl)c1	1	-1.8	-8%	0	-41%[inhibitor]	10
Cc1ccc(NC(=O)Nc2cccs2)nc1	-5	-4.8	-1%	-4	-11%	6
CCCCCCNC(=O)CCCCCNS(=O)(=O)c1ccc(OC)cc1	9	-0.9	4%	-10	-3%	25
O=C1Cc2cc(S(=O)(=O)N3CCNCC3)ccc2N1	1	5.4	5%	5	3%	6
COc1cccc(C(C)(O)c2nc(-c3ccc(S(C)(=O)=O)cc3)cs2)c1 (centres undefined)	6	7.0	/	1	/	1
Cn1c(=O)c(=O)n(C)c2cc(S(=O)(=O)Nc3ccc(OC(F)(F)F)cc3)ccc21	-5	-0.3	-33%	-10	25%	-22
O=C(CC1CCCC1)NNC(=O)c1ccc(Br)cc1	5	3.4	-5%	-6	-30%	/
O=C(c1ccccc1[N+](=O)[O-])N(CCc1ccccc1)Cc1ccccc1	-19	-6.7	-26%	-9	-18%	-15
C[C@H](CO)N1C[C@H](C)[C@@H](CN(C)C(=O)NC2CCCCC2)Oc2ccc(NS(=O)(=O)c3cn(C)cn3)cc2C1=O	8	1.6	12%	/	/	5

Screens as filed in PubChem BioAssay.
